INS promoter inh = TRM-6 insulin promoter activity inhibition | inhibition, % at 2 µM | AID 1273 | TRM-6 cells (human fetal islet line), insulin promoter-eGFP reporter, imaging; reporter expression induced with tamoxifen | actives 0.9% (n = 130,000);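 active = inhibition above the mean plus 3 SD, with well images judged a real hit on visual review, cut at about 60% in these data, passing the limit was not always enough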
RGS16-Gao HTS = regulators of human RGS16-Galphao interaction; O15492+P09471; bead-based flow cytometry RGS16-Galphao binding, fluorescence; actives lie on both sides; binding response (% of control), % at 10 µM; actives 0.38% (n = 220,000); AID 1441;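 active = below 25% or above 175%, edge rows of some plates excepted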;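 note: Galphao activated by GDP with aluminum fluoride before binding; 100% = wells without compound and 0% = beads without RGS; some results beyond the cut were filed as inactive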
HSV replic up = increases HSV replication in cells; HSV replication augmentation in cells, fold increase; maximum fold increase; actives 0.005% (n = 220,000);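 active = peak rise of 1.5-fold or more in the series; tested in PC3 cells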;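 note: first round at 10 µM; read as green reporter fluorescence; hits show the peak of a series up to 25 µM; 1 = signal of infected wells without compound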
GALR2 agonist = agonists of human galanin receptor 2 (GALR2); GALR2-expressing cells, agonist activation read-out; activation, %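 (tested at 5 µM)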; actives 0.48% (n = 140,000); AID 803;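 active = above mean plus 3 SD of all compounds, about 5% in these data, not always enough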;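 note: 0% = vehicle buffer wells and 100% = reference agonist at full effect; tested in CHO reporter cells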
PKD1 kinase inh = blocks activity of human protein kinase D1; Q15139; PKD1 kinase fluorescence polarization assay; inhibition, %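 (about 10 µM by stock and volumes)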; actives 0.056% (n = 200,000); AID 797;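 active = inhibition of 50% or more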;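 note: controls were vehicle for no effect and a reference inhibitor for full effect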
Target sequence (Q15139 whole entry, looked up): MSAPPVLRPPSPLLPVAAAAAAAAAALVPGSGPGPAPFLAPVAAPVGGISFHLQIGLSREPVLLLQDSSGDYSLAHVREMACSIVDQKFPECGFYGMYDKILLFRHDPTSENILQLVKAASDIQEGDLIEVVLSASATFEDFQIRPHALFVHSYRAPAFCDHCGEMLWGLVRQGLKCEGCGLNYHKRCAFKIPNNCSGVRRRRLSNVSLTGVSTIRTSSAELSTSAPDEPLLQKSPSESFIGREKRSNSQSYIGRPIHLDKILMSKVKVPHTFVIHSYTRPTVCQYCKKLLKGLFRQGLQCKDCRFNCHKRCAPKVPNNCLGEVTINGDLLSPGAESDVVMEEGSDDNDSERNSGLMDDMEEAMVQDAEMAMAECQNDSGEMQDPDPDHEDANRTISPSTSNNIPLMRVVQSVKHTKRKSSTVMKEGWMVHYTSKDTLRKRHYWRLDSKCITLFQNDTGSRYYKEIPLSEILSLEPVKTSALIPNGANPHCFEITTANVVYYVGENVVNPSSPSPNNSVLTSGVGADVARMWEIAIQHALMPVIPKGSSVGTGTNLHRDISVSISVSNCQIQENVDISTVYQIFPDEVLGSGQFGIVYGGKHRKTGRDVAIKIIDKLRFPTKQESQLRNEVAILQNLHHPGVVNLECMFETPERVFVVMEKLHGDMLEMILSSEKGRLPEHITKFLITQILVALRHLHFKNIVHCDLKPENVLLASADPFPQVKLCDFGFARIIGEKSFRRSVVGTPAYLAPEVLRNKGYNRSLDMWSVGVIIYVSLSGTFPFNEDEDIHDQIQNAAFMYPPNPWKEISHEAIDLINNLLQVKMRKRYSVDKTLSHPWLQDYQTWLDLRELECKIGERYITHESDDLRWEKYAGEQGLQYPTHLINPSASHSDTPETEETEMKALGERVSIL
INS promoter inh cell count = second read-out of INS promoter inh, no call of its own (marks repeat the call); normalized cell count, %; measured here: cell count, toxicity; reference of the scale not given here;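 cells exposed to compound for 48 h; stained nuclei by imaging scaled within each plate; lower means fewer cells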
HSV replic up primary fold = recorded beside HSV replic up, whose call it bears; fold increase; compound at 10 µM; measured here: primary screen fold increase 10 uM; tested in PC3 cells;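 GFP signal in the first replicate; 1 = infected wells without compound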
Active calls of the source: *; i = inactive; . = no result given.

SMILES	INS promoter inh	INS promoter inh cell count	RGS16-Gao HTS	HSV replic up	HSV replic up primary fold	GALR2 agonist	PKD1 kinase inh
COc1ccc(Cl)cc1S(=O)(=O)N1CCCC1=O	-5.6	108.4	101.9	i	1.02	.	-5.0
Cc1[nH]c2ccccc2c1C(=O)C(C)OC(=O)c1ccc([N+](=O)[O-])o1 (configuration not stated)	.	.	86.3	i	0.87	.	-4.4
Cc1ccccc1S(=O)(=O)Nc1cccnc1	38.5	132.0	105.8	i	0.92	-2.4	-0.6
Cn1cc(C=O)c2ccccc21	.	.	102.0	i	1.01	.	-9.6
CCc1c(C(=O)NCc2ccccc2Cl)[nH]c(C)c1C(C)=O	.	.	135.1	i	0.67	-1.3	2.2
Brc1[nH]nc2ccccc12	-27.3	142.6	90.0	i	1.18	-1.5	3.4
Cn1cccc1CNC(=O)Nc1ccc(Cl)cc1	.	.	108.3	i	1.03	-0.2	-0.7
CCCn1c(O)c(C=Nc2ccccc2)sc1=S	.	.	107.0	i	0.96	.	-3.2
COCCCNC(=O)CN(c1ccc(OC)cc1)S(=O)(=O)c1ccc(NC(C)=O)cc1	.	.	113.1	i	0.85	0.1	0.7
CCCCNC(=O)CC1N=C2c3ccccc3N=C(SCC(=O)Nc3ccccc3OC)N2C1=O (configuration not stated)	44.4	93.5	102.9	i	0.93	0.9	-3.4
CCN(C(=O)CN(C)Cc1cccc(Cl)c1Cl)c1c(N)n(Cc2ccccc2)c(=O)[nH]c1=O	.	.	100.5	i	0.88	-0.8	1.9
O=C(O)C1=C[C@@H](C2CC2)C[C@@H](OCc2ccc(CO)cc2)O1	.	.	98.0	i	0.76	.	-7.4
Clc1ccc(-c2nc(-c3cc4cc(Cl)ccc4o3)cs2)cc1	.	.	104.0	i	0.99	.	.
O=C(c1cccnc1)N1CCN(S(=O)(=O)c2ccc(F)cc2)CC1	-42.9	93.1	108.5	i	0.95	.	12.2
COc1ccc(CCNC(=O)CCS(=O)(=O)c2ccc(Br)cc2)cc1OC	50.0	144.6	105.4	i	0.91	.	4.8
N#Cc1cc(C(=O)c2ccccc2OCC(=O)Nc2ccccc2Cl)cn(C2CCCCC2)c1=O	-12.9	103.6	100.4	i	0.86	1.2	-6.0
Fc1ccc(-n2c(CN3CCCCC3)n[nH]c2=S)cc1	-19.1	96.8	98.5	i	1.05	.	-4.6
COc1ccc(C2C(C#N)=C(N)Oc3cc(C)[nH]c(=O)c32)c(OC)c1OC (configuration not stated)	-7.1	139.0	98.1	i	0.99	-0.1	-0.2
N#CCC(CNc1ncc(C(F)(F)F)cc1Cl)OC(=O)c1ccc(Cl)cc1 (configuration not stated)	-16.1	111.1	104.6	i	0.86	-1.4	9.3
Cc1ccc(OCC(O)CN2C(=O)NC(C)(C)C2=O)cc1 (configuration not stated)	0.0	114.4	107.6	i	1.04	-1.5	-4.6
CC(=O)c1ccn(S(=O)(=O)c2ccc(Cl)cc2)c1	.	.	106.6	i	1	.	.
Cc1nn(-c2ccccc2)c(C)c1/C=N/NC(=O)c1cc(-c2ccc(Cl)s2)[nH]n1	.	.	99.2	i	0.49	-0.1	-9.2
CCCCCOc1ccc(/C=C/C(=O)NCCc2nc3ccccc3[nH]2)cc1OC	5.7	88.0	104.3	i	0.85	0.9	-0.7
Cc1cccc(N(Cc2cc(=O)[nH]c3ccccc23)C(=O)C(C)C)c1	.	.	83.5	i	1.04	.	.
CCn1c(-c2cccc(Cl)c2)n[nH]c1=S	.	.	108.0	i	0.98	-2.4	12.8

Next structures follow:
SMILES	INS promoter inh	INS promoter inh cell count	RGS16-Gao HTS	HSV replic up	HSV replic up primary fold	GALR2 agonist	PKD1 kinase inh
O=C(/C=C\c1ccco1)Nc1nc(-c2ccc3ccccc3c2)cs1	.	.	100.7	i	1.26	-1.7	3.0
CC(=O)Oc1ccc2c(c1)c(C(C)=O)c(C)n2C	-8.1	24.6	99.5	i	1.14	-3.9	-4.9
CCC(=O)Nc1ccc2oc(-c3ccccc3Br)nc2c1	.	.	105.6	i	0.86	-1.7	-3.1
CC1CCCCN1Cc1nc2c(c(=O)n(C)c(=O)n2C)n1Cc1c(F)cccc1Cl (configuration not stated)	.	.	104.6	i	0.92	.	4.8
CC(=O)c1c(C(C)=O)c(C)n(-c2ccc(C(=O)O)cc2)c1C	63.6	118.7	101.2	i	0.94	-0.8	-2.8
Cc1ccc(Cn2ccc(NC(=O)c3cc4nc5c(c(C(F)(F)F)n4n3)CCc3ccccc3-5)n2)cc1	-17.2	100.4	107.0	i	0.84	-3.5	-0.2
COc1ccc(-c2c3c(=O)n(C)c(=O)n(C)c3cn2Cc2ccccn2)cc1	6.7	77.9	103.0	i	1.04	-3.3	-7.2
CC(=O)OCC1=C(C(=O)O)N2C(=O)C(NC(=O)c3ccc(COc4c(C)cccc4Cl)o3)C2SC1 (configuration not stated)	.	.	98.3	i	0.97	.	-1.0
COCCn1c(SCc2cc(=O)n3cc(C)ccc3n2)nc2ccccc2c1=O	.	.	103.2	i	0.95	.	-5.1
COCCCn1c(=O)/c(=C\c2ccccc2OC(F)F)s/c1=C(/C#N)C(=O)NCCOC	.	.	103.5	i	1.29	.	.
CCn1c(SCCC(=O)O)nnc1-c1cccnc1	-6.2	101.2	105.1	i	1.01	-0.8	-6.6
Cc1nc(SCC(=O)Nc2ccc(N3CCOCC3)cc2)nc(C)c1C	-22.9	68.0	105.6	i	0.91	-1.2	-1.0
Cc1ccc(-c2c(C)c(-c3ccc(F)cc3)nc(N)c2C#N)o1	.	.	100.3	i	0.91	0.8	2.2
NNC(=O)CSc1nc(-c2ccccc2)nc2c1CCCC2	.	.	98.3	i	0.95	.	-2.9
COCCNC(=O)C1CCCN(c2nn3c(=O)cc(C)nc3s2)C1 (configuration not stated)	-7.7	61.3	100.0	i	1.02	0.0	-1.4
CCCCNC(=O)NCCN1CCOCC1	.	.	109.8	i	1.01	.	.
S=c1[nH]nc(-c2cc(-c3ccccc3)n[nH]2)n1/N=C/c1cccc(Cl)c1	.	.	97.9	i	0.94	.	.
COC(=O)[C@@]1(Cc2ccc(OC)cc2)[C@@H]2C(=CC(=O)[C@H]2CC(=O)C(=O)N(C)C)CN1C(=O)c1ccccc1	30.0	121.3	97.7	i	0.47	-1.1	1.2
CC[n+]1c(S(=O)(=O)[O-])ccc2ccc(C)cc21	.	.	99.7	i	1.04	-2.7	-8.1
Cc1ccccc1OCC(=O)Nc1ccc2oc(=O)ccc2c1	-390.0	144.4	100.7	i	0.87	.	4.4
COCCCNC(=O)c1ccccc1NS(C)(=O)=O	-41.7	119.7	100.0	i	1.19	-2.4	-9.3
O=C(COC(=O)c1ccc2c(c1Cl)C(=O)c1ccccc1C2=O)NC1CC1	-18.2	101.8	105.4	i	0.72	0.5	-3.2
COc1ccc(NC(=O)C2CCN(S(=O)(=O)c3ccc(Br)s3)CC2)cc1OC	21.4	110.0	107.6	i	0.83	-1.3	-4.7
COc1ccc(C(=O)CSc2nnc(COc3ccc(C#N)cc3)n2-c2ccccc2)cc1	.	.	101.4	i	0.96	-3.2	-11.6
CCOC(=O)c1c(C)[nH]c(C)c1C(=O)CSc1nc2ccccc2n1CCC#N	16.7	110.5	99.8	i	0.97	0.6	3.6

Next structures follow:
SMILES	INS promoter inh	INS promoter inh cell count	RGS16-Gao HTS	HSV replic up	HSV replic up primary fold	GALR2 agonist	PKD1 kinase inh
O=C(Nc1cccc(C(F)(F)F)c1)c1ccc(N2CCNCC2)c([N+](=O)[O-])c1	.	.	102.3	i	0.67	.	9.2
CC(C)[C@H]1CN=C2N(CCNC(=O)CCC3CCCCC3)[C@H](Cc3ccc(O)cc3)CN21	.	.	102.5	i	0.94	.	3.2
Cc1cccc(N2CCN(C(=O)c3cc4c(=O)n(C)c5ccccc5c4n3C)CC2)c1C	.	.	102.5	i	0.94	-2.4	-3.8
Cc1cc(=O)oc2c(CN3CCCCC3)c(O)c(Cl)cc12	72.1	114.5	108.5	i	1.03	3.2	6.7
O=C(COC(=O)CCC(=O)c1ccc(Cl)cc1)NCCc1ccccc1	-25.0	105.7	99.7	i	0.86	.	-4.3
CSc1nc(Oc2ccc3ccccc3c2)c2sccc2n1	-10.0	52.0	106.1	i	0.73	-1.5	-12.1
O=C(NCc1ccc(N2CCCC2=O)cc1)c1cnccn1	-16.2	112.8	88.4	i	0.893	-0.9	-4.1
c1ccc(Cn2c(NCc3ccccn3)nc3ccccc32)cc1	.	.	99.6	i	0.89	.	4.6
O=C(CSc1cccc[n+]1[O-])c1ccccc1Br	.	.	104.0	i	0.99	.	-0.3
COc1ccc(CNC(=O)C/C(C)=N/NC(=O)c2cnccn2)cc1	17.4	163.1	110.1	i	0.92	.	-5.1
NNC(=O)c1cc(Cl)ccc1Cl	46.7	66.9	106.2	i	0.88	-0.5	-21.0
O=C(CN1CCN(c2ccccn2)CC1)NCCc1ccccc1	.	.	138.4	i	1	-0.8	2.0
CC(C)COC(=O)n1c(=O)oc2cc(S(=O)(=O)N3CCCCC3)ccc21	.	.	105.5	i	0.91	-2.1	-9.2
O=C(Nc1ccc(N2CCOCC2)cc1)C1(c2ccc(Cl)cc2)CCC1	.	.	98.7	i	0.99	.	1.3
CCc1nnc(NC(=O)CSc2nnc(CSc3nc(C)cc(C)n3)o2)s1	-7.7	110.9	.	i	0.89	-0.6	2.3
O=C(NCc1ccc2c(c1)OCO2)Nc1cccc2ccccc12	.	.	111.3	i	1.28	.	.
CCOc1ccc(NC(=O)CC2C(=O)N(c3ccccc3)C(=O)N2CCc2cccs2)cc1 (configuration not stated)	-25.9	102.7	107.5	i	0.96	-0.8	0.8
Cc1cc2oc3c(c(=O)c2cc1C)C(c1ccc(F)cc1)N(CCCN1CCOCC1)C3=O (configuration not stated)	.	.	102.5	i	0.82	-1.0	2.8
Cc1cccc(N2CCN(C(=O)C3CCN(S(=O)(=O)c4cccc5nsnc45)CC3)CC2C)c1 (configuration not stated)	16.7	120.1	105.5	i	0.94	-1.1	-11.4
CCCOC(=O)C1=C(C)NC2=C(C(=O)CC(C)(C)C2)C1c1ccc(N(C)C)cc1 (configuration not stated)	.	.	99.5	i	1.01	-1.1	2.8
Cc1ccc(C(C)C)c(OCCN2C(=O)NC(C)(C)C2=O)c1	.	.	100.6	i	0.95	-1.5	5.9
Cc1ccccc1OCCc1c(C)[nH]c(=S)[nH]c1=O	-263.6	3.7	100.0	i	0.73	.	-4.4
O=C(Cc1cccs1)Nc1ccccc1NC(=O)Cc1cccs1	0.0	38.8	112.2	i	0.97	-0.9	-18.1
O=C(OCC(=O)N1CCc2ccccc2C1)c1cccnc1Cl	.	.	103.1	i	1.04	.	-3.4
COc1ccc(S(=O)(=O)N2CCN(C(=O)Cc3cccs3)CC2)cc1	.	.	100.3	i	1.03	-0.8	1.8
CCOC(=O)c1c(-c2ccc(-c3ccccc3)cc2)csc1NC(=O)C1C2CCC(O2)C1C(=O)O (configuration not stated)	0.0	96.4	100.7	i	1	-0.2	2.3
O=C(/C=C/Nc1ccc(F)cc1)c1ccc(Oc2ncccn2)cc1	35.7	149.8	106.2	.	.	-0.6	10.9
O=c1oc2ccccc2c2c1C(c1ccc(Cl)cc1)Nc1ccc3ccccc3c1-2 (configuration not stated)	8.1	114.1	103.0	i	0.92	-1.0	-1.4
Cc1ccccc1/C=N/Nc1ncnc2nc[nH]c12	.	.	95.0	i	0.68	.	.
